High-throughput results from PubChem BioAssay.
HIV TAR-Tat – HIV-1 TAR-Tat binding disruption | HIV-1 TAR RNA, Tat peptide displacement FRET; active compounds read high | z-score (concentration not given with the values) | hit rate 0.6% among 100,000;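 further: score is relative to mean and SD of negative controls; some compounds called inactive have numbers as strong as hits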
CDC25B-CDK2 inh – human CDC25B-CDK2/CyclinA binding inhibition; P30305+P24941; HTRF CDC25B-CDK2/CyclinA binding, anti-His/anti-Flag; active compounds read high; z-score (test concentration not listed); hit rate 0.72% among 94,000; AID 1259370;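 further: score is relative to mean and SD of negative controls; strong numbers were not always called active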
* marks the source's active call; other numbers are inactive results; x = no result given.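 How the source made its calls: active means z-score from 3 up in half or more of its runs; inactive means the rest.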

SMILES | HIV TAR-Tat | CDC25B-CDK2 inh
Cc1cc(C)c2oc(C(=O)Nc3nnc(C(C)C)s3)cc(=O)c2c1 | -0.02 | 1.38
CN(C)c1ccc(/C=N/NC2=NCCN2)cc1 | x | -1.84
O=C(CSc1nc(-c2ccccc2F)nc2cc(=O)[nH]n12)NCC1CCCO1 (configuration not stated) | 0.25 | x
Cc1ccc(C)c(CN2CCc3nc(Nc4ccc5c(c4)OCO5)ncc3C2)c1 | 0.23 | x
O=C(NCc1cccc(Cl)c1)c1nc2c(nnn2CC2CCCO2)c(=O)[nH]1 (configuration not stated) | 0.03 | 1.18
CCOc1ccc(Nc2nc3ccccc3n3nnnc23)cc1 | -3.49 | -0.99
COc1ccc(CSc2ccc([N+](=O)[O-])c3nonc23)cc1 | x | -1.76
Cc1ccc(C2CC(c3ccco3)n3ncnc3N2)cc1 (configuration not stated) | 0.35 | -1.17
COc1ccc2c(c1)sc1nc(C)cc(=O)n12 | 2.35 | x
COc1ccc(C2CC(c3ccccc3F)n3nnnc3N2)cc1 (configuration not stated) | 1.87 | x
COc1ccc(NC(=O)Nc2nc3ccccc3s2)c(OC)c1 | 0.56 | -2
CCOC(=O)Cc1cc(=O)n2[nH]c(NCc3cccs3)nc2n1 | 1.2 | -3.07
CCn1c(C2CC(=O)N(CC3CC3)C2)nc2ccccc21 (configuration not stated) | 0.19 | -1.13
CCCn1c(=O)c2sccc2n2c(CCCC(=O)N3CCCC(C)C3)nnc12 (configuration not stated) | -0.77 | x
CCOC(=O)c1[nH]c(C)c(C(=O)NCCCN2CCOCC2)c1C | x | -0.64
Cc1cc(NC(=O)NCc2ccccc2)c(C(F)(F)F)o1 | x | -1.59
COc1ccc(Cc2nn3c(Cn4cnc5ccccc54)nnc3s2)cc1OC | -0.15 | -0.61
CCCCN(C)CCNC(=O)c1c(O)nc2c(C)cccn2c1=O | 0.33 | -1.31
Cc1ccc2nc(N3CCN(c4cccc(C)c4C)CC3)c3nnnn3c2c1 | -1.09 | 0.57
COc1ccc(NC2=CC(=O)N(c3ccc(OC)cc3)C2=O)cc1 | x | -0.25
CCCCCOC(=O)C1=C(C)NC2=C(C(=O)CCC2)C1c1cc(OC)c(OC)cc1Br (configuration not stated) | 0.19 | -0.53
Cc1cc(S(=O)(=O)[C@H]2CS(=O)(=O)C[C@@H]2NCc2ccccc2F)ccc1F | 1.94 | -1.64
CC1CCN(c2oc(-c3cccs3)nc2S(=O)(=O)c2ccccc2)CC1 | 1.02 | -0.89
COc1ccc(-c2cnc(SCc3ccccc3)n2C)cc1 | 0.11 | x
Cc1cc2nnc(SCC(=O)c3ccc4c(c3)OCCO4)n2c2ccccc12 | x | -0.75
Cc1cn(S(=O)(=O)c2csc(Cl)c2Br)nc1-c1cccs1 | x | -1.56
COCCCN1C(=O)C(=O)/C(=C(/O)c2ccc(C)cc2)C1c1ccc(N(C)C)cc1 (configuration not stated) | -0.12 | -1.28
COc1ccc(-c2coc3c2c(C)cc2oc(=O)c4c(c23)CCC4)cc1 | x | -0.88
Cc1ccccc1CNS(=O)(=O)c1cc(-c2ccc(=O)[nH]n2)cc(C)c1C | 0.38 | x
Cc1ccc(-c2nc3nc(C)cc(N4CCc5ccccc5C4)n3n2)cc1 | 0.53 | -2.1
CC(=O)N[C@@H]1[C@@H](O)[C@H](O)[C@@H](CO)O[C@H]1O | 2.32 | x
Cc1nc(-c2ccc(F)cc2)sc1CCNS(=O)(=O)CCc1ccccc1 | -0.04 | x
O=C(O)Cc1ccc(-n2c(=S)[nH]c3ccsc3c2=O)cc1 | x | -0.57
Cc1cc(=O)oc2cc(OC(=O)c3cccs3)ccc12 | x | -0.56
COc1ccc(/C=C/c2nc3ccccc3[nH]2)cc1 | x | -1.79
CC1CCCC(NC(=O)Nc2cccs2)C1C (configuration not stated) | 0.12 | 0.49
COc1cc(CN(C(=O)c2cccc([N+](=O)[O-])c2)c2cccc(F)c2)cc(OC)c1OC | x | -0.41
O=C1CCc2cc(S(=O)(=O)NC(C(=O)NC3CCCc4ccccc43)c3ccccc3)ccc2N1 (configuration not stated) | x | -0.14
CCOC(=O)N1CCC(NC(=O)c2oc3ccc4c(c3c2C)C(O)CC(C)(C)O4)CC1 (configuration not stated) | 1.91 | -0.1
NC(Cn1ccc(=O)c(O)c1)C(=O)O (configuration not stated) | 1.82 | x
Cn1c(=O)c2ccccc2n2c(CCC(=O)N3CCN(c4ccccn4)CC3)nnc12 | 1.21 | -1.44
Cc1ccn(Cc2n[nH]c(=S)n2Cc2ccccc2)n1 | x | 0.94
Cc1noc(C)c1C(=O)O/N=C1\CCSc2ccc(F)cc21 | x | 0.22
COC(=O)c1ccc(CSc2ccc3nnc(-c4ccc(C)cc4)n3n2)o1 | x | -0.68
Cc1nc2c(C(=O)Nc3ccc(Cl)cc3)c[nH]n2c(=O)c1C | 0.72 | -2.95
CCOC(=O)C1(C)C=C(Nc2ccc(S(=O)(=O)Nc3nccs3)cc2)C(=O)N1c1ccccc1 (configuration not stated) | -1.22 | x
Cc1ccc(S(=O)(=O)N(Cc2nc(-c3ccc(Cl)cc3)no2)C(C)C)cc1 | 0.51 | 0.01
Cc1ccc(-c2c(C(F)(F)F)nn3c(NCc4cccnc4)cc(C)nc23)cc1 | 0.21 | -0.66
COc1ccc(NC2=NS(=O)(=O)C(c3ccc(C(C)C)cc3)=C2C)cc1 | 1.35 | -1.04
CN1CCN(CCCN2C(=O)CSC2c2ccccc2)CC1 (configuration not stated) | 0.13 | -0.75
COc1cccc(Nc2ncnc3c2cnn3C)c1 | 1.42 | -0.26
Cc1ccc(CN(C(=O)c2ccc(C(C)(C)C)cc2)C2CCS(=O)(=O)C2)o1 (configuration not stated) | 1.3 | -0.87
NCCS(=O)(=O)O | x | -0.37
Cc1cc(C)cc(NS(=O)(=O)c2ccc3c4c2CC(=O)N4CC(C)S3)c1 (configuration not stated) | 0.61 | x
O=C(c1cc(-c2ccccc2)nc2ccccc12)N1CCc2ccccc21 | x | -0.7
CC(=O)C1C(c2ccc(F)cc2)NC(=O)NC1(O)C(F)(F)F (configuration not stated) | x | -2.18
CC(C)c1ccc(-n2nnc(-c3nc(-c4ccc(F)cc4)no3)c2N)cc1 | -0.59 | x
N#C/C(=C\c1ncc(C(F)(F)F)cc1Cl)S(=O)(=O)c1ccccc1Cl | x | -1.71
Cn1c(N2CCOCC2)nc2c1c(=O)n(Cc1ccc(Cl)cc1)c(=O)n2C | -0.8 | -0.92
Cc1ccc(S(=O)(=O)Nc2nc3ccc(N)cc3s2)cc1 | 0.05 | -2.57

Following part
SMILES | HIV TAR-Tat | CDC25B-CDK2 inh
Cc1noc(/C=C/N(C)C)c1S(=O)(=O)N1CCCC(C(=O)NCc2cccs2)C1 (configuration not stated) | 0.42 | 0
CCc1nnc(NS(=O)(=O)c2ccc(N3C(=O)C4CC=C(Cl)CC4C3=O)cc2)s1 (configuration not stated) | x | -1.29
O=S(=O)(c1ccc(Cl)cc1)N1CC2C3C=CC(C3)C2C1 (configuration not stated) | x | -1.51
Cc1cc2n[nH]nc2cc1Cl | x | -1.85
CC(C)(C)c1ccc(-c2nc(NC(=O)CSc3ncn[nH]3)ns2)cc1 | 1.4 | 0.88
CCOc1ccc(C2c3c(-c4c(C)cc(C)cc4O)n[nH]c3C(=O)N2CCO)cc1 (configuration not stated) | 0.08 | -1.76
Cc1ccc(S(=O)(=O)Nc2ncn(Cc3ccc(Cl)cc3)n2)cc1C | 0.06 | -1.92
Cn1c(=O)c2c(NCc3ccccc3)cc(=O)n(C)c2n(C)c1=O | x | -0.77
COc1ccc(NC(=O)c2sc(=S)n3c2[nH]c(=O)c2ccccc23)cc1OC | 3.61 | x
N#Cc1ccc(S(=O)(=O)Nc2ccccc2Oc2ccc(Cl)cc2Cl)cc1 | x | -2.05
Fc1cc(F)cc(-c2noc3ncnc(NCc4ccccc4)c23)c1 | 1.47 | x
Cc1cc2n(n1)CCCN2C(=O)CCC(=O)N1CCC(C)CC1 | 2.44 | x
Cc1ccc(Nc2c(-c3ccc(Cl)cc3)c(=O)c2=O)c(C)c1 | -0.05 | x
C=CCN(C(=O)Cn1c(C(=O)OC)cc2occc21)c1ccccc1 | -1.44 | -2.88
CCN1CCN(Cc2ccc(NC3=NS(=O)(=O)C(c4ccc(C)c(C)c4)=C3C)cc2)CC1 | 1.38 | -1.95
CCCC12CN3CC(C)(CN(C1)C3c1cc(Br)ccc1OC)C2=O (configuration not stated) | 0.26 | 1.31
O=C1CCCC2=C1C(c1cccc(Cl)c1)n1nc(SCc3ccc(C(=O)O)cc3)nc1N2 (configuration not stated) | 0.06 | -0.82
CCN1CCCC1CNC(=O)Cn1c(-c2cccs2)cc2cc(Cl)ccc21 (configuration not stated) | 0.28 | x
COC(=O)c1ccc2c(=O)n3nc(Nc4ccc(OC)cc4OC)sc3nc2c1 | -0.1 | x
CNC(=O)c1ccc2c(c1)CCN2S(=O)(=O)c1ccc(Br)cc1 | 0.5 | -0.71
COc1cc(CNC(C)(C)CO)cc(Br)c1OCc1ccccc1 | 1.36 | -0.89
Cc1cc(N/C=C(\C#N)C(=O)c2ccc(Cl)cc2)no1 | x | -1.98
O=C(Nc1cccc2nsnc12)c1cccs1 | -0.42 | -0.75
O=C(CN1C=NS(=O)(=O)c2ccccc21)NCc1ccco1 | 1.55 | x
O=C(OCc1cc(=O)n2nc(C3CCCCC3)sc2n1)c1cccs1 | -1.08 | x
CCOc1ccc(-c2cc(OC(=O)c3ccccc3)c3c(C)oc(C)c3c(=O)c2)cc1 | 1.3 | 0.79
CCN(CC)c1ccc(NS(=O)(=O)c2cc3c(cc2Cl)NC(=O)CO3)c(C)c1 | -0.14 | x
O=C(C1CC1)N1CCc2cc(S(=O)(=O)N3CC=C(c4ccccc4)CC3)ccc21 | x | -0.07
O=C(NCc1ccco1)NCc1cccn1Cc1ccc(Cl)cc1 | 0.34 | x
CN1CCN(C(=O)CCS(=O)(=O)c2cc3c(cc2Cl)NC(=O)CO3)CC1 | 2 | x
C=CCN(C(=O)CSc1nc2c(c(=O)[nH]1)CCC2)c1ccccc1 | 1.56 | -1.41
CN1C(=O)C(C)(C)c2cc(S(=O)(=O)NCC3CCC(C(=O)N4CCCC4)CC3)ccc21 (configuration not stated) | 2.75 | x
CCOC(=O)c1cccc(CSc2nc(-c3ccc(C)cc3)c(C#N)c(=O)[nH]2)c1 | -0.39 | 3.43
CCOc1ccc(-c2cc(OC)c3c(C)oc(C)c3c(=O)c2)cc1 | 2 | -1.83
Cc1ccc(-n2nnc(-c3nc(-c4ccccc4Cl)no3)c2C)cc1F | 0.56 | x
COC(=O)C1=CN2c3ccccc3SC2(C(=O)OC)C(C(=O)OC)=C1C(=O)OC (configuration not stated) | x | 0.26
O=C(c1cnc2sc(N3CCOCC3)nn2c1=O)N1CCOCC1 | 1.63 | x
Nc1nc(-c2c(F)cccc2Cl)cs1 | x | -1.28
Cc1ccc(CN(C(=O)c2nc(SC(C)C)ncc2Cl)C2CCS(=O)(=O)C2)cc1 (configuration not stated) | 0.26 | 0.51
Cc1cc2c(cc3c(=O)n(CC(=O)NCCCN4CC(C)CC(C)C4)ncn32)s1 (configuration not stated) | 0.1 | -0.71
COc1ccc(S(=O)(=O)c2nnn(-c3cc(C)ccc3OC)c2C)cc1 | -2.02 | -0.91
CCOc1ccc(C2C(C(=O)OCc3ccccc3)=C(C)Nc3nnnn32)cc1 (configuration not stated) | x | 0.26
Cc1ccccc1-c1noc(-c2cc(-c3ccc(F)cc3)n[nH]2)n1 | -1.45 | x
CC(=O)N1c2ccc(S(=O)(=O)NCc3ccc(C)o3)cc2CC1C (configuration not stated) | 2.78 | x
CCNc1nc(N2CCN(CCO)CC2)nc2c1cnn2C | 1.18 | x
COc1ccc(NC(=O)c2[nH]nc3c2CSc2ccccc2-3)c(OC)c1 | 1.74 | x
O=C(c1ccncc1)N1N=C(C2CC2)CC1(O)C(F)(F)F (configuration not stated) | x | -0.48
O=C(CSc1nc2ccccc2s1)Nc1nccs1 | 0.81 | -1.7
CCN(CC)CCCN=C1NS(=O)(=O)C(c2ccc(OC)cc2)=C1C | -0.29 | -0.26
CCOc1ccc(-n2c(C)nnc2SCc2nc(-c3ccc(OC)cc3OC)no2)cc1 | 0.96 | 0.29
Cc1cc(S(=O)(=O)Nc2noc3ccccc23)ccc1F | 0.96 | -1.62

Among those listed so far, these have a thiophene ring, fused or not.
SMILES | HIV TAR-Tat | CDC25B-CDK2 inh
CCOC(=O)Cc1cc(=O)n2[nH]c(NCc3cccs3)nc2n1 | 1.2 | -3.07
CCCn1c(=O)c2sccc2n2c(CCCC(=O)N3CCCC(C)C3)nnc12 (configuration not stated) | -0.77 | x
CC1CCN(c2oc(-c3cccs3)nc2S(=O)(=O)c2ccccc2)CC1 | 1.02 | -0.89
Cc1cn(S(=O)(=O)c2csc(Cl)c2Br)nc1-c1cccs1 | x | -1.56
O=C(O)Cc1ccc(-n2c(=S)[nH]c3ccsc3c2=O)cc1 | x | -0.57
Cc1cc(=O)oc2cc(OC(=O)c3cccs3)ccc12 | x | -0.56
CC1CCCC(NC(=O)Nc2cccs2)C1C (configuration not stated) | 0.12 | 0.49
Cc1noc(/C=C/N(C)C)c1S(=O)(=O)N1CCCC(C(=O)NCc2cccs2)C1 (configuration not stated) | 0.42 | 0
CCN1CCCC1CNC(=O)Cn1c(-c2cccs2)cc2cc(Cl)ccc21 (configuration not stated) | 0.28 | x
O=C(Nc1cccc2nsnc12)c1cccs1 | -0.42 | -0.75
O=C(OCc1cc(=O)n2nc(C3CCCCC3)sc2n1)c1cccs1 | -1.08 | x
Cc1cc2c(cc3c(=O)n(CC(=O)NCCCN4CC(C)CC(C)C4)ncn32)s1 (configuration not stated) | 0.1 | -0.71
